# Source: PubChem BioAssay (ICCB-Longwood Screening Facility, Harvard Medical School)
# p53 nuclei – nuclear p53 accumulation, HPV+ cells – imaging, p53-positive nuclei imaging, 24 h, 48 h (AID 1508601); hit rate 1% among 5,700; p53-positive nuclei imaging, 48 h; hits give high values; some inactives read as strong as hits; p53-positive nuclei, normalised, % at 11 µM unless noted;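 active means mean of two plates above 50% at 24 h or at 48 h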;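 further: HPV-positive HeLa cells with a fluorescent p53 stability reporter; 0% = vehicle and 100% = proteasome inhibitor control; doses worked out from stocks diluted about 900-fold with the highest of each compound shown; many of its hits are not listed in these tables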
# p53 nuclei cells 24 h – recorded beside p53 nuclei, whose call it bears; nuclei count, normalised, %; measured here: cell number at 24 h;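 100% = vehicle wells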
# p53 nuclei p53 24 h – recorded beside p53 nuclei, whose call it bears; p53-positive nuclei, normalised, %; measured here: p53 positive nuclei at 24 h;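 0% = vehicle and 100% = positive control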
# p53 nuclei cells 48 h – recorded beside p53 nuclei, whose call it bears; nuclei count, normalised, %; measured here: cell number at 48 h;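 100% = vehicle wells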
# Numbers without * were called inactive; [ ] = another dose, or the depositor's remark.
cpd | smiles | p53 nuclei | p53 nuclei cells 24 h
1 | CN(C)CCN(Cc1ccc(-c2ccc(CNCCc3ccccc3)cc2)cc1)C(=O)CCC1CCCC1 | 19.4 | 31.7
2 | COc1ccc(F)c(F)c1C(=O)c1cnc(NC2CCN(S(C)(=O)=O)CC2)nc1N | 67.1*[3.7 µM] | 43.7*
3 | O=C(O)CCNc1cc(N2CCc3ccccc3CC2)nc(-c2ccccn2)n1 | -0.6 | 101.7
4 | Cc1cc(C)c2c(c1)C(N(Cc1cc(C(F)(F)F)cc(C(F)(F)F)c1)c1nnn(C)n1)CCCN2CC1CCC(C(=O)O)CC1 (stereo not drawn) | 0.1 | 83.8
5 | CCC(C)n1ncn(-c2ccc(N3CCN(c4ccc(OCC5CO[C@](Cn6cncn6)(c6ccc(Cl)cc6Cl)O5)cc4)CC3)cc2)c1=O (stereo partly drawn) | 0.0[3.7 µM] | 103.0
6 | N#CC(c1ccnc(NCCc2cccnc2)n1)c1nc2ccccc2s1 (stereo not drawn) | 3.8 | 68.6
7 | COc1cc2ncnc(Nc3ccc(F)c(Cl)c3)c2cc1NC(=O)C=CCN1CCCCC1 | -0.2 | 79.3
8 | Cn1cnc2c(F)c(Nc3ccc(Br)cc3F)c(C(=O)NOCCO)cc21 | -0.2 | 101.0
9 | Cc1cc(C(N)=O)ccc1-n1c(CCC(=O)O)ccc1-c1ccc(-n2ccnc2)cc1 | -0.1 | 98.8
10 | Nc1nc(CC(=O)Nc2ccc(CCNCC(O)c3ccccc3)cc2)cs1 (stereo not drawn) | 0.2 | 80.9
11 | O=C(c1ccccc1)c1ccc2n1CCC2C(=O)O (stereo not drawn) | 0.0[3.7 µM] | 111.3
12 | COc1cccc2c(NCc3ccccc3)nc(-n3c(N)nc4ccccc43)nc12 | 11.1 | 46.2
13 | CC1CCc2c(N3CCC(O)CC3)c(F)cc3c(=O)c(C(=O)O)cn1c23 (stereo not drawn) | -0.2[3.7 µM] | 119.1
14 | Cc1c(NC(=O)OCC2COCCN2)cn2ncnc(Nc3ccc4c(cnn4Cc4cccc(F)c4)c3)c12 (stereo not drawn) | -0.4[3.7 µM] | 103.3
15 | CC(C)(C)Sc1c(CC(C)(C)C(=O)O)n(Cc2ccc(Cl)cc2)c2ccc(OCc3ccc4ccccc4n3)cc12 | -0.1 | 104.3

cpd | p53 nuclei p53 24 h | p53 nuclei cells 48 h
1 | 35.1 | 22.3
2 | 73.8* | 27.7*
3 | -0.2 | 102.5
4 | 0.0 | 83.2
5 | -0.4 | 105.3
6 | 0.6 | 49.2
7 | -0.2 | 87.1
8 | 0.0 | 97.2
9 | -0.1 | 106.8
10 | 0.1 | 86.0
11 | -0.1 | 111.1
12 | 8.8 | 30.1
13 | -0.5 | 111.5
14 | -0.2 | 101.9
15 | 0.0 | 106.5

# Further compounds.
cpd | smiles | p53 nuclei | p53 nuclei cells 24 h
16 | Cc1ccc(C(=O)C(C)CN2CCCCC2)cc1 (stereo not drawn) | -0.1[3.7 µM] | 112.2
17 | Cc1cc(O)c2c(c1)C(=O)c1cccc(O)c1C2=O | 2.7[3.7 µM] | 111.7
18 | Cc1ccccc1C(C(=O)NC1CCCCC1)N(C(=O)Cn1ccnc1C)c1cccc(F)c1 (stereo not drawn) | -0.1 | 114.3
19 | CCCc1cc(C(N)=S)ccn1 | 0.0[3.7 µM] | 107.5
20 | CN(CCOc1ccc(NS(C)(=O)=O)cc1)CCc1ccc(NS(C)(=O)=O)cc1 | 0.1[3.7 µM] | 82.6
21 | OC1CCC(Nc2ncc3nc(Nc4c(F)cc(F)cc4F)n(C4CCOC4)c3n2)CC1 (stereo not drawn) | -0.3 | 114.0
22 | CC(C)(C(=O)c1cccnc1)c1cccnc1 | 0.0 | 100.7
23 | O=C(Nc1cccc(C(F)(F)F)c1)Nc1cc(S(=O)(=O)NC2CC2)ccc1-c1ccsc1 | 0.0 | 112.9
24 | Cc1ccc(-n2nc(C(C)(C)C)cc2NC(=O)Nc2ccc(OCCN3CCOCC3)c3ccccc23)cc1 | -0.2 | 110.1
25 | c1ccc2c(Oc3nc(Nc4ccc(N5CCOCC5)cc4)c4ncn(C5CCCCC5)c4n3)cccc2c1 | -0.2[3.7 µM] | 111.1
26 | CC=C(C)C(=O)OC1C(C)=C[C@]23C(=O)C(C=C(CO)C(O)[C@]12O)C1C(CC3C)C1(C)C (stereo partly drawn) | 1.8 | 82.7
27 | O=C(c1ccc(C=Cc2n[nH]c3ccccc23)cc1)N1CCNCC1 | 1.3 | 33.0
28 | COc1ccc2cc(-c3nc(-c4ccc(S(C)=O)cc4)[nH]c3-c3ccncc3)ccc2c1 (stereo not drawn) | 0.1 | 100.2
29 | Cc1cc(CN2CCN(c3c(Br)cnc4nc(-c5ccc(N6CCN(C)CC6)cc5)[nH]c34)CC2)no1 | -0.2[3.7 µM] | 44.4
30 | O=C(c1cn(Cc2cncn2Cc2ccc(Br)cc2)cc1-c1cccc2ccccc12)N1CCOCC1 | -0.1[3.7 µM] | 102.1

cpd | p53 nuclei p53 24 h | p53 nuclei cells 48 h
16 | -0.2 | 111.5
17 | 0.5 | 109.4
18 | 0.0 | 113.9
19 | -0.2 | 107.5
20 | 0.2 | 96.2
21 | -0.1 | 113.3
22 | -0.1 | 100.8
23 | 0.1 | 117.6
24 | 0.0 | 104.3
25 | -0.4 | 110.1
26 | 4.3 | 93.6
27 | 0.5 | 18.3
28 | 0.0 | 92.8
29 | -0.3 | 34.1
30 | -0.3 | 88.5

# (listing goes on)
cpd | smiles | p53 nuclei | p53 nuclei cells 24 h
31 | Cc1cn(C2OC(CO)C(O)C2F)c(=O)[nH]c1=O (stereo not drawn) | -0.3[3.7 µM] | 108.0
32 | CCN(CC)CCOC(=O)C(c1ccccc1)c1ccccc1 | -0.2[3.7 µM] | 118.9
33 | CCOC(=O)Nc1ccc(NCc2ccc(F)cc2)nc1N | -0.2[3.7 µM] | 109.2
34 | COc1ccc(-c2oc3c(CC=C(C)C)c(OC4OC(CO)C(O)C(O)C4O)cc(O)c3c(=O)c2OC2OC(C)C(O)C(O)C2O)cc1 (stereo not drawn) | 0.1[3.7 µM] | 102.2
35 | CNC(=O)c1ccccc1Nc1cc(Nc2ccc(N3CCOCC3)cc2OC)ncc1C(F)(F)F | -0.2 | 78.8
36 | CCC(=O)O[C@]1(C(=O)SCF)C(C)C[C@H]2[C@H]3CC(F)C4=CC(=O)C=C[C@]4(C)[C@@]3(F)C(O)C[C@@]21C (stereo partly drawn) | 0.2 | 96.5
37 | OCC(O)CN1CCN(c2ccccc2)CC1 (stereo not drawn) | -0.1[3.7 µM] | 108.7
38 | O=C1NC(=O)C(c2cnc3ccccn23)=C1c1cn2c3c(cc(F)cc13)CN(C(=O)N1CCCCC1)CC2 | 4.2 | 59.7
39 | Cc1c(C(=O)NCCCO)cnn1-c1nc(-c2cccc(C(F)(F)F)c2)cs1 | 0.2 | 98.1
40 | Cc1ccc(C(=O)Nc2ccc(CN3CCN(C)CC3)c(C(F)(F)F)c2)cc1C#Cc1cnc2[nH]ncc2c1 | 0.7[3.7 µM] | 55.3
41 | CS(=O)(=O)N1CCc2c(-c3cnc(N)nc3)nc(N3CCOCC3)nc21 | -0.1 | 85.4
42 | COc1cc(N2CCC(N(C)C)CC2)ccc1Nc1ncc(Cl)c(Nc2ccccc2P(C)(C)=O)n1 | 10.3 | 30.8
43 | CCOC(=O)C(CCc1ccccc1)NC(C)C(=O)N1C(=O)N(C)CC1C(=O)O (stereo not drawn) | -0.3[3.7 µM] | 115.0
44 | CNC(=O)c1ccc(C)c(-n2c(C)cc(OCc3ccc(F)cc3F)c(Br)c2=O)c1 | -0.2 | 105.0
45 | Cc1oncc1C(=O)Nc1ccc(C(F)(F)F)cc1 | -0.3 | 107.0

cpd | p53 nuclei p53 24 h | p53 nuclei cells 48 h
31 | -0.4 | 102.9
32 | -0.5 | 109.0
33 | -0.4 | 105.8
34 | 0.2 | 102.6
35 | -0.2 | 78.9
36 | -0.2 | 94.1
37 | -0.2 | 108.0
38 | 0.8 | 30.0
39 | 0.0 | 100.8
40 | 0.1 | 47.9
41 | 0.0 | 72.7
42 | 3.6 | 19.9
43 | -0.6 | 109.0
44 | -0.2 | 108.3
45 | -0.1 | 101.5

# The listing continues:
cpd | smiles | p53 nuclei | p53 nuclei cells 24 h
46 | CCN1CC(CCN2CCOCC2)C(c2ccccc2)(c2ccccc2)C1=O (stereo not drawn) | -0.2[3.7 µM] | 95.1
47 | O=C(NC1CCNCC1)c1[nH]ncc1NC(=O)c1c(Cl)cccc1Cl | 22.1 | 28.2
48 | COc1cc2nccc(Oc3ccc(NC(=O)Nc4cc(C)on4)c(Cl)c3)c2cc1OC | 0.0 | 83.8
49 | CC(=O)c1cnc2ccc(-c3cc(Cl)c(O)c(Cl)c3)nc2c1NC1CCC(CN(C)C)CC1 (stereo not drawn) | 0.1 | 42.2
50 | CN1CCC(=C2c3ccccc3CC(=O)c3sccc32)CC1 | 0.0[3.7 µM] | 100.9
51 | Cc1cc(-c2ncc(CC(=O)Nc3ccc(-c4cnccn4)cn3)cc2C)ccn1 | -0.2[3.7 µM] | 101.2
52 | O=C(NCCN1CCOCC1)c1ccc(Cl)cc1 | 0.0[3.7 µM] | 106.9
53 | NC(=O)c1ccc(-c2nc(-c3ccc4c(c3)OCO4)c(-c3ccccn3)[nH]2)cc1 | -0.6[3.7 µM] | 96.9
54 | O=c1[nH]c(-c2ccc(C(F)(F)F)cc2)nc2c1CSCC2 | 0.1 | 100.8
55 | CCOC(=O)c1cnc2ccc(-c3cncc(NS(=O)(=O)c4ccccc4)c3)cn12 | 0.3[3.7 µM] | 48.2
56 | CCn1c(=O)c2c(nc(C=Cc3ccc(OC)c(OC)c3)n2C)n(CC)c1=O | -0.2[3.7 µM] | 97.3
57 | CC1CN(Cc2ncccn2)CC1c1nc2c(cnn2C2CCOCC2)c(=O)[nH]1 (stereo not drawn) | -0.1 | 106.9
58 | C=CC(=O)Nc1cc2c(Nc3ccc(F)c(Cl)c3)ncnc2cc1OCCCN1CCOCC1 | 1.7 | 42.5
59 | CCCc1cc(C)[nH]c(=O)c1CNC(=O)c1cc(-c2ccc(N3CCN(C(C)C)CC3)nc2)cc2c1cnn2C(C)C | -0.2[3.7 µM] | 107.2
60 | Cc1nc(C#Cc2ccnc(Cl)c2)c(C)n1-c1ccc(F)cc1 | 0.0 | 99.2
61 | CC(C)(F)CC(NC(c1ccc(-c2ccc(S(C)(=O)=O)cc2)cc1)C(F)(F)F)C(=O)NC1(C#N)CC1 (stereo not drawn) | -0.1 | 87.2
62 | N#Cc1ccc(OC2c3ccccc3CC2N2CCCC(N)C2)c(Cl)c1 (stereo not drawn) | 0.2 | 52.4

cpd | p53 nuclei p53 24 h | p53 nuclei cells 48 h
46 | -0.2 | 96.4
47 | 0.7 | 16.7
48 | 0.0 | 75.5
49 | 0.5 | 32.3
50 | -0.1 | 99.4
51 | -0.3 | 98.4
52 | -0.2 | 105.5
53 | -0.3 | 98.0
54 | 0.2 | 100.6
55 | -0.3 | 39.3
56 | -0.4 | 95.1
57 | 0.0 | 103.3
58 | 2.7 | 28.8
59 | -0.4 | 100.9
60 | -0.1 | 100.7
61 | -0.1 | 91.8
62 | 1.1 | 62.1

# By substructure: the entries above with a Cl atom.
cpd | smiles | p53 nuclei | p53 nuclei cells 24 h
5 | CCC(C)n1ncn(-c2ccc(N3CCN(c4ccc(OCC5CO[C@](Cn6cncn6)(c6ccc(Cl)cc6Cl)O5)cc4)CC3)cc2)c1=O (stereo partly drawn) | 0.0[3.7 µM] | 103.0
7 | COc1cc2ncnc(Nc3ccc(F)c(Cl)c3)c2cc1NC(=O)C=CCN1CCCCC1 | -0.2 | 79.3
15 | CC(C)(C)Sc1c(CC(C)(C)C(=O)O)n(Cc2ccc(Cl)cc2)c2ccc(OCc3ccc4ccccc4n3)cc12 | -0.1 | 104.3
42 | COc1cc(N2CCC(N(C)C)CC2)ccc1Nc1ncc(Cl)c(Nc2ccccc2P(C)(C)=O)n1 | 10.3 | 30.8
47 | O=C(NC1CCNCC1)c1[nH]ncc1NC(=O)c1c(Cl)cccc1Cl | 22.1 | 28.2
48 | COc1cc2nccc(Oc3ccc(NC(=O)Nc4cc(C)on4)c(Cl)c3)c2cc1OC | 0.0 | 83.8
49 | CC(=O)c1cnc2ccc(-c3cc(Cl)c(O)c(Cl)c3)nc2c1NC1CCC(CN(C)C)CC1 (stereo not drawn) | 0.1 | 42.2
52 | O=C(NCCN1CCOCC1)c1ccc(Cl)cc1 | 0.0[3.7 µM] | 106.9
58 | C=CC(=O)Nc1cc2c(Nc3ccc(F)c(Cl)c3)ncnc2cc1OCCCN1CCOCC1 | 1.7 | 42.5
60 | Cc1nc(C#Cc2ccnc(Cl)c2)c(C)n1-c1ccc(F)cc1 | 0.0 | 99.2
62 | N#Cc1ccc(OC2c3ccccc3CC2N2CCCC(N)C2)c(Cl)c1 (stereo not drawn) | 0.2 | 52.4

cpd | p53 nuclei p53 24 h | p53 nuclei cells 48 h
5 | -0.4 | 105.3
7 | -0.2 | 87.1
15 | 0.0 | 106.5
42 | 3.6 | 19.9
47 | 0.7 | 16.7
48 | 0.0 | 75.5
49 | 0.5 | 32.3
52 | -0.2 | 105.5
58 | 2.7 | 28.8
60 | -0.1 | 100.7
62 | 1.1 | 62.1

# Only part of the results is shown; rates above refer to the full screens.
